Source: PubChem (several laboratories)
RGS16-Gao: modulators of RGS16 binding to Galphao, primary screen, biochemical, human proteins, multiplexed bead flow cytometry; bead-based flow cytometry RGS16-Galphao binding, fluorescence; actives lie on both sides; 220,000 tested, 0.38% active; binding response (% of control), % at 10 µM;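 active = below 25% or above 175%, edge rows of some plates excepted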;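 also: Galphao activated by GDP with aluminum fluoride before binding; 100% = wells without compound and 0% = beads without RGS; some results beyond the cut were filed as inactive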
Target sequence (O15492 whole entry, looked up): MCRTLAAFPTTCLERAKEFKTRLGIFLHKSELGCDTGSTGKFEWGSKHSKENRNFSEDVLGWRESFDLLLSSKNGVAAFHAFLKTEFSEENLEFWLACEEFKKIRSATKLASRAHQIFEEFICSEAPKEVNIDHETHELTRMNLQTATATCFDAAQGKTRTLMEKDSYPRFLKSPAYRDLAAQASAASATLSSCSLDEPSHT
Target sequence (P09471 whole entry, looked up): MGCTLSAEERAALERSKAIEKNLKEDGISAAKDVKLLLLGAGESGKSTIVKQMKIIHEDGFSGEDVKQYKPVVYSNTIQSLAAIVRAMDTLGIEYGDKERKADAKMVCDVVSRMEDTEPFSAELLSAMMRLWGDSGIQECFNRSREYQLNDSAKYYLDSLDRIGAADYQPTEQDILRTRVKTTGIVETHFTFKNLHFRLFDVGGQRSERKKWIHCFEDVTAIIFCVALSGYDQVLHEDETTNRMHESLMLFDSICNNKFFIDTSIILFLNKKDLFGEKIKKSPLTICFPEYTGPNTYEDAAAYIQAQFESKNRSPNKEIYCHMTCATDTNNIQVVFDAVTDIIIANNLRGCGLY
Insulin prom inh: inhibitors of insulin promoter-driven GFP, primary screen, imaging, TRM-6 cells (human fetal islet line), eGFP reporter, cell count; AID 1273, 2008; reporter expression induced with tamoxifen; inhibition, % at 2 µM; 130,000 tested, 0.9% active;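 active = inhibition above the mean plus 3 SD, with well images judged a real hit on visual review, cut at about 60% in these data, passing the limit was not always enough; inconclusive = inhibition over the cutoff but images rejected on review; inactive = inhibition not above the cutoff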
PKD1 kinase inh: inhibitors of human PKD1 kinase, biochemical, fluorescence polarization. PKD1 kinase fluorescence polarization assay. AID 797, 2007. inhibition, %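 (about 10 µM by stock and volumes)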. Serine/threonine-protein kinase D1 (Homo sapiens), Q15139. 200,000 tested, 0.056% active;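 active = inhibition of 50% or more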;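 also: controls were vehicle for no effect and a reference inhibitor for full effect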
GALR2 ag: GALR2 receptor agonists, primary screen, cell-based; 140,000 tested, 0.48% active; activation, %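 (tested at 5 µM)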; Galanin receptor type 2 (Homo sapiens), O43603; GALR2-expressing cells, agonist activation read-out;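 active = above mean plus 3 SD of all compounds, about 5% in these data, not always enough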;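 also: 0% = vehicle buffer wells and 100% = reference agonist at full effect; tested in CHO reporter cells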
Target sequence (O43603 whole entry, looked up): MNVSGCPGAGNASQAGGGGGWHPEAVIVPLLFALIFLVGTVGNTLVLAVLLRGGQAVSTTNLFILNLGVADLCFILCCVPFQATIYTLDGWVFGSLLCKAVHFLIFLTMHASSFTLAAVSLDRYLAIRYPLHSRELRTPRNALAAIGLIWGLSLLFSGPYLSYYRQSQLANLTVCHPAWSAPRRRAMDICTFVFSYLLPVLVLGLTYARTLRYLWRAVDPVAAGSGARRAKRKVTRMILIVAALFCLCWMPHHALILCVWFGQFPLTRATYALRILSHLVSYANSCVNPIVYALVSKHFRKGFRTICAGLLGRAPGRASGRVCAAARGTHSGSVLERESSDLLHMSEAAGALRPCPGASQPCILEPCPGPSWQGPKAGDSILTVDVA
HSV replic up: enhancers of HSV replication in host cells, fold increase, host cell viability; HSV replication augmentation in cells; maximum fold increase; 220,000 tested, 0.005% active; AID 1956, 2009;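 active = peak rise of 1.5-fold or more in the series; inconclusive = self-fluorescent or not available for retest; tested in PC3 cells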;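 also: first round at 10 µM; read as green reporter fluorescence; hits show the peak of a series up to 25 µM; 1 = signal of infected wells without compound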
Insulin prom inh cell count: also measured in Insulin prom inh; calls as there; normalized cell count, %; measured here: cell count, toxicity; reference of the scale not given here;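 cells exposed to compound for 48 h; stained nuclei by imaging scaled within each plate; lower means fewer cells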
HSV replic up primary fold: recorded beside HSV replic up, whose call it bears; fold increase; compound at 10 µM; measured here: primary screen fold increase 10 uM; tested in PC3 cells;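 GFP signal in the first replicate; 1 = infected wells without compound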
An asterisk follows results filed as active; i = inactive; ? = inconclusive; / = not tested or not shown. No enrichment for hits. Share with any hit: about 1.3%.

SMILES | RGS16-Gao | Insulin prom inh | Insulin prom inh cell count | PKD1 kinase inh | GALR2 ag | HSV replic up | HSV replic up primary fold
COc1ccc(N2CCN(c3n[nH]c(N)n3)CC2)cc1 | 108 | 3 | 130 | 3 | / | i | 1
COc1ccc(C(=O)N2CC3(CC(c4cccc([N+](=O)[O-])c4)=NO3)C[C@H]2C(=O)NCC(N)=O)cc1 (stereo partly drawn) | 105 | / | / | -13 | -3.1 | i | 0.89
CSc1nsc(SC)c1NC(=O)OCCc1ccccn1 | 102 | 60 | 93 | 1 | -3.0 | i | 1
CCOc1ccccc1CN1CCN(Cc2cccc3c2OCO3)CC1CCO (stereo not drawn) | 105 | / | / | 3 | / | i | 0.9
Cc1ccc(CN(Cc2ccco2)C(=S)NCC(=O)NCc2cccnc2)cc1 | 109 | -8 | 127 | -2 | / | i | 0.94
Nc1nc(NCc2ccco2)nc(N2CCOCC2)c1[N+](=O)[O-] | 97 | / | / | / | / | i | 0.85
C=C(C)C1CC=C(CN2CCC(O)CC2)CC1 (stereo not drawn) | 76 | 23 | 68 | -2 | -1.8 | i | 0.85
COCCNC(=O)/C(C#N)=C/c1ccc(O)cc1 | 110 | / | / | / | / | i | 1.1
CCOc1ccc(C(=O)CSCC(=O)O)cc1 | 109 | -6 | 86 | -4 | / | i | 0.99
O=C(CCN1C(=O)/C(=C/c2cccc(Br)c2)SC1=S)NNC(=O)c1cccnc1 | 98 | 23 | 129 | -2 | -2.2 | i | 1.2
COC(=O)c1ccc(NC(=S)Nc2cccc(C)n2)cc1 | 99 | -65 | 86 | -1 | / | i | 0.92
CCOc1ccc(OCCOCCN2CCOCC2)cc1 | 79 | -31 | 110 | -3 | -2.1 | i | 1
Cc1cc(C)c(S(=O)(=O)Nc2ccc(N3CCOCC3)cc2)c(C)c1 | 99 | / | / | / | / | i | 0.77
O=c1cc(CN2CCN(c3ccc(F)cc3)CC2)c2cc3c(cc2o1)CCCC3 | 183 | 5 | 71 | -4 | -0.2 | i | 1
COc1ccc(C(=O)CSc2nnc(-c3ccco3)o2)cc1 | 112 | 17 | 133 | -2 | / | i | 1
O=c1[nH]n2c(-c3ccccc3)nc(O)c2c2ccccc12 | 99 | / | / | -3 | / | i | 1
O=C(NNS(=O)(=O)c1ccc(C(=O)NC2CCCC2)cc1)c1ccncc1 | 101 | / | / | 4 | / | i | 0.97
COc1ccc2nc(NC(=O)c3cccc(OCc4c(C)noc4C)c3)sc2c1 | 97 | / | / | -5 | 0.5 | / | /
Cc1ccc(NC(=O)COC(=O)C2CC2C)c(S(=O)(=O)N2CCCCC2)c1 (stereo not drawn) | 69 | -6 | 39 | -3 | -1.7 | i | 0.98
Cc1ccc(N(CC(=O)Nc2cc(Cl)ccc2Oc2ccccc2)S(C)(=O)=O)c(C)c1 | 102 | -18 | 94 | 0 | -0.7 | i | 1
CCOC(=O)c1ccccc1-n1nnnc1C | 104 | / | / | / | / | i | 1.1
CN1C(=O)CS/C1=N\NC(=O)COc1cccc2cccnc12 | 96 | 11 | 109 | -1 | / | i | 0.89
Cc1cccnc1NC(=O)c1csnn1 | 104 | / | / | / | / | i | 1.3
Cc1ccc(NC(=O)CSC(C)C(=O)NCCc2ccccn2)cc1 (stereo not drawn) | 102 | / | / | 3 | / | i | 0.99
O=c1[nH]c(CSc2nc(-c3ccc(F)cc3)cs2)nc2ccccc12 | 102 | 27 | 108 | -11 | -1.3 | i | 0.87
Continuation:
SMILES | RGS16-Gao | Insulin prom inh | Insulin prom inh cell count | PKD1 kinase inh | GALR2 ag | HSV replic up | HSV replic up primary fold
O=C(CN1CCC(C(=O)c2ccc(F)cc2)CC1)Nc1ccccc1 | 102 | / | / | 2 | -1.1 | i | 1
O=S(=O)(c1cccs1)N1CCc2ccccc21 | 104 | / | / | 1 | 0.0 | i | 0.95
COc1cc2c(cc1NC(=O)c1cccnc1)CCCC2 | 128 | -53 | 121 | -4 | -0.7 | i | 0.87
CC(C)(C)c1nc(SCC(=O)N2CCCC2)c2ccccc2n1 | 106 | -29 | 128 | 3 | / | i | 0.96
CCOC(=O)C1Sc2[nH]c(=O)sc2C(c2ccc(Cl)cc2)C1C(=O)OCC (stereo not drawn) | -39* | 14 | 63 | -4 | -1.9 | i | 0.86
CC1=CC2=NC(=O)/C(=C\c3cc(C)n(-c4ccc(F)cc4)c3C)C(=N)N2O1 | 25 | 23 | 67 | 0 | 12* | i | 1.2
O=S(=O)(NCCc1ccccc1)c1cccc2nsnc12 | 95 | -20 | 120 | 1 | -2.2 | i | 1.1
CC1(C)CC(=O)C=C(NNC(=O)c2ccccc2O)C1 | 87 | -49 | 89 | -1 | 0.2 | i | 1.1
COc1ccc(NC(=O)CN2CCN(CC(=O)Nc3ccccc3Cl)CC2)cc1 | 100 | 29 | 130 | 0 | -3.1 | i | 0.99
COc1ccc(Br)cc1S(=O)(=O)NNC(=O)c1c(C)nc2ccccn12 | 97 | / | / | -3 | / | i | 0.93
COc1ccccc1NC(=O)Cc1noc(CSc2nnc(C(F)(F)F)n2C)n1 | 111 | -121 | 53 | -3 | / | / | /
NN1C(=O)/C(=C\c2ccco2)SC1=S | 101 | / | / | / | / | i | 1.1
COc1ccc(OC)c(C2=NOC(C(=O)Nc3c(C)n(C)n(-c4ccccc4)c3=O)C2)c1 (stereo not drawn) | 87 | / | / | / | / | i | 0.89
COc1ccc(-n2c(CNC(=O)c3cc(OC)c(OC)c(OC)c3)n[nH]c2=S)cc1 | 100 | 0 | 101 | 4 | -3.0 | i | 0.9
O=c1oc2cc(O)ccc2c2c1CCCC2 | 88 | -119 | 135 | -1 | 0.3 | i | 0.81
O=c1cnnc(N/N=C/c2c[nH]c3ccccc23)[nH]1 | 99 | 0 | 84 | 5 | / | i | 0.9
Cc1nonc1NC(=O)OC1CCCCC1 | 99 | -18 | 87 | 8 | -2.2 | i | 1.1
O=C(Nc1nnc(C2CCCCC2)s1)c1ccco1 | 105 | -35 | 106 | -6 | -2.0 | i | 1.1
O=C(CC1OC(=O)c2ccccc21)c1ccco1 (stereo not drawn) | 101 | / | / | -2 | -4.1 | i | 0.97
OCCNc1cnc2ccccc2n1 | 108 | / | / | -4 | / | i | 1
COc1cc2nc(C3CCC3)n(NC(=O)COc3ccccc3)c(=O)c2cc1OC | 109 | -29 | 85 | -6 | -1.1 | i | 0.87
Cc1ccc(Nc2cc(=O)n(C3CCCCC3)c(=O)[nH]2)cc1C | 102 | 64 | 54 | -6 | -2.8 | i | 0.89
CCNC(=S)N/N=C/c1cccs1 | 68 | -39 | 96 | -2 | -2.1 | ? | /
Cc1cc(N2CCN(C(=O)c3ccco3)CC2)n2ncnc2n1 | 86 | 60 | 157 | -7 | -1.2 | i | 0.88
Cc1ccccc1OCC(=O)Nc1ccc(S(=O)(=O)Nc2ccccn2)cc1 | 99 | 26 | 157 | 4 | -0.3 | i | 1.1

A different layout for part of the listing above.
Value order: RGS16-Gao | Insulin prom inh | Insulin prom inh cell count | PKD1 kinase inh | GALR2 ag | HSV replic up | HSV replic up primary fold
Cc1nonc1NC(=O)OC1CCCCC1
    99 | -18 | 87 | 8 | -2.2 | i | 1.1
O=C(Nc1nnc(C2CCCCC2)s1)c1ccco1
    105 | -35 | 106 | -6 | -2.0 | i | 1.1
O=C(CC1OC(=O)c2ccccc21)c1ccco1 (stereo not drawn)
    101 | / | / | -2 | -4.1 | i | 0.97

Further compounds
SMILES | RGS16-Gao | Insulin prom inh | Insulin prom inh cell count | PKD1 kinase inh | GALR2 ag | HSV replic up | HSV replic up primary fold
Cc1cc(C)n2nc(SCc3nnc(SCc4ccccc4Cl)s3)nc2n1 | 249 | / | / | 2 | -1.5 | i | 0.63
CS(=O)(=O)N(CC(=O)N1CCN(Cc2ccc3c(c2)OCO3)CC1)Cc1ccc(Cl)cc1 | 95 | -45 | 120 | -1 | -1.4 | i | 0.9
COc1ccc(-c2c(N)n[nH]c2C)cc1OC | 111 | / | / | -10 | / | i | 0.85
O=C(/C=C/c1cn(-c2ccccc2)nc1-c1ccc2c(c1)OCCO2)NCCO | 101 | / | / | -8 | / | i | 0.73
Cc1csc(NC(=O)c2cc3c(s2)CCC3)n1 | 130 | / | / | 1 | -2.5 | i | 0.95
O=C(NCCc1c[nH]c2ccccc12)C(=O)NCC1OCCN1S(=O)(=O)c1ccccc1 (stereo not drawn) | 105 | -86 | 66 | -2 | / | i | 0.93
COc1ccc(C2CC3(CC(C)(C)NC(=S)N3)Oc3cc(O)cc(C)c32)cc1OC (stereo not drawn) | 91 | 5 | 98 | 5 | / | i | 0.9
O=C(Nc1ccn(Cc2ccccc2)n1)c1n[nH]c([N+](=O)[O-])c1Cl | 85 | 44 | 81 | -16 | -1.1 | i | 1
CN(C)C(=O)N1CCC(C(=O)NC2CCCCCCC2)CC1 | 103 | 4 | 77 | -3 | -1.1 | i | 0.89
CCCCSc1nc2c(cnn2-c2ccc(C)c(C)c2)c(=O)[nH]1 | 101 | / | / | 3 | -2.0 | i | 0.87
O=C(O)CSc1nnc(CNc2ccc(Cl)cc2)n1Cc1ccccc1 | 102 | 6 | 133 | -1 | -1.2 | i | 0.68
CC(=O)Nc1ccc(/C(C)=N/NC(=O)c2ccccc2Cl)cc1 | 26 | 6 | 104 | -1 | -0.6 | i | 0.85
CC1(C)CC(NC(=S)NCc2ccc3c(c2)OCO3)CC(C)(C)N1 | 92 | / | / | -5 | / | i | 0.99
O=C(CCC1CCCC1)NCc1cccs1 | 86 | -24 | 229 | -3 | -1.0 | i | 1
Cc1ccc(-c2nn(-c3ccccc3)cc2/C=N/NC(=O)c2ccc3c(c2)OCO3)cc1 | 105 | -38 | 57 | 7 | -1.8 | i | 1
Cc1cc(Br)ccc1NC(=O)c1cnc(N2CCN(c3ccccn3)CC2)c2ccccc12 | 102 | -8 | 126 | -2 | / | / | /
Cc1ccc(C)c(C(C)NC(=O)c2ccc(Br)o2)c1 (stereo not drawn) | 106 | / | / | 7 | / | i | 0.93
COc1ccccc1/C=C/C=C1N=C(/C=C/c2ccc(Cl)cc2)OC/1=O | 111 | 44 | 114 | -3 | -1.4 | i | 0.96
CCOC1(OCC)N=C(N)C2(C#N)C(c3ccc(NC(C)=O)cc3)C12C#N (stereo not drawn) | 101 | / | / | 1 | 0.3 | i | 1.1
COc1ccccc1/C=C/C(=O)Nc1cccc(S(=O)(=O)NC2=NCCCCC2)c1 | 103 | / | / | -7 | / | i | 0.85
Cc1cccc(NC(=O)c2cc(=O)n(Cc3ccccc3)c(=O)[nH]2)c1 | 101 | -11 | 107 | -1 | / | i | 1
CC(C)(C)c1[nH]c2ccccc2c1/C=N/O | 96 | -67 | 95 | -2 | 0.6 | i | 0.93
Cc1ccccc1Nc1cc(C(=O)NCC2CCCO2)c2ccccc2n1 (stereo not drawn) | 85 | / | / | / | / | i | 0.96
COc1ccccc1-c1nc(C#N)c(N2CCN(C(c3ccccc3)c3ccccc3)CC2)o1 | 103 | 73* | 71* | -3 | -1.6 | i | 0.98
CC(=O)N/C(=C/c1ccc(OS(=O)(=O)c2ccc(C)cc2)cc1)C(=O)NCCCO | 87 | / | / | / | / | i | 0.97
CN(C)CCN(Cc1ccccc1)c1nccc(N(C)C)c1C#N | 123 | 12 | 48 | 12 | -1.8 | i | 1.1
O=C1Cc2ccccc2Sc2cc(OCCCN3CCCCC3)ccc21 | 106 | 6 | 175 | 10 | -0.6 | i | 0.84
Cc1ccccc1OCCC(=O)OCC(=O)Nc1cc(S(=O)(=O)N2CCOCC2)ccc1Cl | 104 | 33 | 125 | 1 | / | i | 0.84
N#Cc1ccc(-c2ccco2)nc1SCC(=O)c1ccc(Cl)cc1 | 99 | / | / | 4 | -3.6 | ? | /

Seven entries already listed, sorted by the value under HSV replic up primary fold, descending.
Structure | HSV replic up primary fold
CC1(C)CC(NC(=S)NCc2ccc3c(c2)OCO3)CC(C)(C)N1 | 0.99
CC(=O)N/C(=C/c1ccc(OS(=O)(=O)c2ccc(C)cc2)cc1)C(=O)NCCCO | 0.97
COc1ccccc1/C=C/C=C1N=C(/C=C/c2ccc(Cl)cc2)OC/1=O | 0.96
Cc1csc(NC(=O)c2cc3c(s2)CCC3)n1 | 0.95
CS(=O)(=O)N(CC(=O)N1CCN(Cc2ccc3c(c2)OCO3)CC1)Cc1ccc(Cl)cc1 | 0.9
CN(C)C(=O)N1CCC(C(=O)NC2CCCCCCC2)CC1 | 0.89
COc1ccccc1/C=C/C(=O)Nc1cccc(S(=O)(=O)NC2=NCCCCC2)c1 | 0.85
